Bioassay records deposited in PubChem by ICCB-Longwood Screening Facility, Harvard Medical School.
KSHV LANA nucl = inhibitors of KSHV LANA-nucleosome binding, primary screen, biochemical, fluorescence polarization, FITC-LANA1-23, chicken nucleosomes; actives 0.3% (n = 51,000); AID 720717, 2013; z-score (test concentration not listed); FITC-LANA1-23 / chicken nucleosome fluorescence polarization; stronger effect = lower value;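 active means both repeat wells score below -2 in polarization z-score versus plate sample wells, excluding overly bright wells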;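 further: 100 nL library stock added to about 30 µL; numbers are from one replicate; some results filed as inactive read as strong as hits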
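Test system: purified chicken nucleosomes with FITC-labelled LANA N-terminal peptide (1-23); Input: 240 nM purified chicken nucleosomes (480 nM peptide binding sites), final; Medium: TEN-BT buffer, pH 7.5; Timing: 10–45 min, room temperature; Technique: fluorescence polarization, 480 nm excitation, 535 nm parallel and perpendicular emission; Replication: duplicates.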
Ab BasE inh = BasE siderophore enzyme inhibitors, primary screen, biochemical, Acinetobacter baumannii ATCC 17978, fluorescence polarization; purified BasE, fluorescence polarization binding displacement; inhibition, % (no concentration beside the values); actives 0.1% (n = 84,000);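 active means both replicates above 25% with normal brightness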;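 further: 0% = negative plate control signal and 100% = positive plate control signal; stock transfer was 100 nL into about 30 µL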
* = called active by the depositor; / = not tested or not shown. The list is partial; rates above refer to the full screens.

SMILES	KSHV LANA nucl	Ab BasE inh
CCn1c(-c2ccc(C)cc2)cnc1SCC(=O)NCC1CCCO1 (configuration not stated)	/	4.3
CC(C)c1cc(NC(=O)COC(=O)c2ccccc2CSc2ncn[nH]2)on1	/	-0.9
CCOC(=O)/C=C1\SCC(=O)N1Cc1ccc(Br)cc1	/	1.5
O=C(O)C1Cc2ccccc2C1	/	1.4
COCCNC(=O)Cn1cc(/C=C2\C(=O)NC(=O)N(C3CCCCC3)C2=O)c2ccccc21	-2.5	6.4
CCc1ccc(Oc2c(C(F)(F)F)oc3c(CN4CCCCC4)c(O)ccc3c2=O)cc1	/	1.0
CC(C)c1ccc(C(=O)CC#N)cc1	/	3.4
Cc1ccc(S(=O)(=O)NC(=O)NCc2ccccc2)cc1	/	0.1
C/C(=N\NC(=O)c1ccc2c(c1)OCO2)c1cc(F)ccc1O	/	-0.5
CC(C)(C)C(=O)ON=C(c1cccs1)c1cccs1	-0.097	2.3
Cc1ccc(N2CNC(=O)c3c(C)cc(C)nc32)cc1	0.065	-0.4
CCC(C)N(C(=O)Cn1c(=O)cnc2ccccc21)C1CCS(=O)(=O)C1 (configuration not stated)	/	0.3
C/C(=N/NC(=O)c1c(N)no[n+]1[O-])c1cccs1	0.56	-1.8
O=C1C2Cc3ccccc3CN2C(=S)N1c1ccccc1 (configuration not stated)	/	1.3
CCOc1ncccc1C(=O)OCc1ccc(C(=O)OC)o1	/	2.5
O=C(NC1CCCC1)C1CCCN(S(=O)(=O)c2ccc(-n3cnnn3)cc2)C1 (configuration not stated)	0.65	-0.4
O=S(=O)(CCSc1ccc(C(F)(F)F)cn1)c1ccc(Cl)cc1	-0.51	3.0
O=C1N=c2ccccc2=C1c1sc2ccccc2c1O	0.46	1.9
C(=N\c1nccs1)/N1CCOCC1	/	-3.3
Cc1ccc(-c2nnn(CCC(=O)NC(C)(C)C)n2)cc1	-0.46	3.1
O=C(O)C1Oc2ccccc2O1	-0.045	1.0
COc1cccc(NC(=O)CSc2nnc(C)o2)c1	/	2.2
CCCN(CCC)Cn1nc(-c2ccncc2)n(CCCOCC)c1=S	/	1.1
COC(=O)c1c[nH]n2c(=O)c3c(nc12)CCN(Cc1ccccc1)C3	-0.42	-0.8
COc1ccccc1/C=C1\SC(=O)N(CC(=O)N2CCOCC2)C1=O	/	0.4
CC(=O)Nc1ccc(S(=O)(=O)NCC(=O)OC2CCOC2=O)cc1 (configuration not stated)	/	1.0
Cc1nc(COc2cc(C)c(Cl)c(C)c2Cl)cs1	/	-2.5
O=C(OCC(=O)c1c[nH]c2ccccc12)c1cccc(S(=O)(=O)N2CCOCC2)c1	/	-0.7
COC(=O)c1ccc(OC)c(CSc2nnc(COc3cc(C)cc(C)c3)o2)c1	-0.31	3.2
COc1ccc(-n2cnnc2SCc2ncc(-c3ccccc3)o2)cc1	/	-0.1
O=S(=O)(NCCCN1CCOCC1)c1ccccc1	-0.11	3.2
CC(CO)NCc1ccccc1 (configuration not stated)	0.45	-0.6
CSc1nnc(CCN2CCN(C)CC2)n1C	-0.18	2.0
CCc1ccccc1NC(=O)Cn1nnc(C(=O)NCCc2ccccc2)c1N	-0.64	1.0
O=C(CSc1nnc(-c2ccco2)o1)OCc1cc(F)cc2c1OC(c1ccccc1)OC2 (configuration not stated)	/	-1.2
Cc1ccc(-n2c(SCCc3c(C)noc3C)nnc2-c2ccc(Cl)cc2)cc1	/	-0.5
CCCCNC(=O)Cc1n[nH]c(=O)c2ccccc12	/	2.9
Cc1ccccc1NS(=O)(=O)c1ccc(CCN2C(=O)c3cccnc3C2=O)cc1	0.86	-0.8
Cc1cc(C)n(CC(O)Cn2c3ccccc3c3ccccc32)n1 (configuration not stated)	0.61	0.1
CCCCN(C)S(=O)(=O)c1ccc2c(c1)CCN2C(=O)CCC(=O)O	-1.2	2.0
CCOC(=O)c1sc(N)c(C#N)c1COC(=O)c1nn(CC)c(=O)c2ccccc12	/	-51
O=C(CN1CCCCCC1=O)N/N=C/c1c(Cl)nc2sccn12	/	2.7
O=C(OCCN1C(=O)c2ccccc2C1=O)Oc1ccccc1	-0.72	4.8
O/N=C1\Cc2cccc3cccc1c23	/	2.4
COC(=O)c1cc2ccc(C)cc2[nH]1	0.39	0.7
Cc1ccc2[nH]c3nc(SCC(=O)O)nnc3c2c1	0.34	1.5
CS(=O)(=O)N1Cc2ccccc2CC1C(=O)OCc1nnc(-c2ccc(Cl)cc2)o1 (configuration not stated)	/	-2.5
COC(=O)c1ccccc1NC(=O)n1ncc2cc(Cl)ccc21	0.24	-1.1
O=C(Nc1ccccc1)C1C2C=CC3(O2)C1C(=O)N(C1CCCC1)C3C(=O)NC1CCCCC1 (configuration not stated)	0.24	1.6
CSc1ncccc1C(=O)OCCCCN1C(=O)c2ccccc2C1=O	/	1.3
CCC(C)C(=O)Nc1ccc(C(C)CC)cc1 (configuration not stated)	0.064	-0.6
NNC(=O)c1ccc(C(F)(F)F)cc1	-0.95	1.1
Cc1ncsc1C(=O)O	-0.39	-0.1
O=C(c1ccc(F)cc1)N1CCCCC(Sc2nnc3sc4ccccc4n23)C1=O (configuration not stated)	/	-0.3
CCOC(=O)Nc1nc2ccccc2[nH]1	-0.39	/
O=C(O)CSc1ccccc1C(=O)O	-0.19	3.9
CC(SCC(=O)N1c2ccccc2CC1C)C(=O)O (configuration not stated)	/	0.9
CC(C)c1ccc(C2=C(O)c3ccccc3C(=O)C2=O)cc1	/	0.1
N#CCCCSc1nc2ccccc2c(=O)n1Cc1ccccc1	-0.78	-1.1
O=C(Nc1c[nH]c2ccccc12)N1CCCc2ccccc21	-1	-0.8

Another view of some results above:
> CC(C)c1ccc(C2=C(O)c3ccccc3C(=O)C2=O)cc1
  KSHV LANA nucl: /
  Ab BasE inh: 0.1
> N#CCCCSc1nc2ccccc2c(=O)n1Cc1ccccc1
  KSHV LANA nucl: -0.78
  Ab BasE inh: -1.1

The list goes on:
SMILES	KSHV LANA nucl	Ab BasE inh
CC1CCN(c2nc3nonc3nc2N2CCC(C)CC2)CC1	-0.54	1.1
COc1cc(C(F)(F)F)c(C(=O)N(C)Cc2ccc(Cl)cc2)cn1	0.28	/
CCC(C)NC(=O)c1ccccc1N (configuration not stated)	/	0.2
Cn1ncc(N2CCN(C(=O)c3ccc(Cl)cc3)CC2)c(Cl)c1=O	-0.81	3.4
CC1CC(OCC(O)CN)CC(C)(C)C1 (configuration not stated)	-0.97	-0.2
COc1ccc(C)cc1NC(=O)COC(=O)[C@@H]1CCCN1C(=O)OC(C)(C)C	/	1.6
Cc1onc(-c2ccccc2)c1C(=O)NC12CC3CC(CC(C3)C1)C2	/	-0.3
COc1cccc(OCC2COS(=O)O2)c1 (configuration not stated)	0.025	5.7
CCOc1ccc(NC(=O)CC2C(=O)N(c3ccccc3)C(=S)N2CCCN2CCN(C)CC2)cc1 (configuration not stated)	1.6	-5.0
CC1(C)C2CC=C(/C=N/NC(=O)c3cccc(S(=O)(=O)N4CCOCC4)c3)C1C2 (configuration not stated)	/	1.3
CCC1Oc2ccc(C)cc2N(CC(=O)N(Cc2cccnc2)Cc2cccc(OC)c2)C1=O (configuration not stated)	-1	-0.3
CCCN(Cc1cc2cccc(C)c2[nH]c1=O)C(C)=O	-0.34	-1.3
CSc1nnc(C2CCN(C(=O)c3cc(F)cc(F)c3)CC2)n1C	-1.4	2.8
Nc1cc(=O)[nH]c(=O)n1-c1ccc(Cl)cc1	/	3.8
CC(=O)N1CCN(S(=O)(=O)c2cccc(C(=O)NCC34CC5CC(CC(C5)C3)C4)c2)CC1	/	1.6
CCCCn1c(SCC(=O)N2CCC(C)CC2)nc2cc(S(N)(=O)=O)ccc21	/	2.1
COc1ccc(C(=O)OCc2cn3cc(Cl)ccc3n2)c(OC)c1OC	/	-0.5
CCCCOC(=O)Nc1nccs1	-1.5	0.9
O=C(Cn1nnc(-c2ccccc2)n1)OCC(=O)N1CCc2ccccc2C1	/	-0.2
S=C(NCCc1ccccn1)Nc1ccccc1	/	2.4
CSc1ncccc1C(=O)NCC1CCCCC1	/	-2.0
O=C1C=C(NCc2ccc(Cl)cc2)CCC1	-1.4	-0.6
CCn1c(O)c(C(C)=NCc2ccccc2CN(C)C)c(=O)n(CC)c1=S	/	-1.7
CC(C)Cn1nc(C(=O)N2CCN(Cc3nc4ccccc4s3)CC2)c2ccccc2c1=O	/	1.7
Cc1c(C)c(C)c(CN)c(C)c1C	/	-56
Cn1ccnc1SCC(=O)c1c[nH]c2ccccc12	/	16
O=C(NC1CCCCC1)OCC(F)(F)F	/	2.7
CCc1cccc(NC(=O)CN(C2=NC3CS(=O)(=O)CC3S2)c2cccc(C)c2)c1 (configuration not stated)	-0.28	-1.2
CC(=O)n1nccc1-c1nccnc1C	/	-0.8
OCC1OC(n2nnc3ccccc32)C(O)C(O)C1O (configuration not stated)	0.43	3.8
C=CCN(CC=C)c1nc(-c2ccccc2)nc2ccccc12	/	2.8
CCCCCc1cc(C(=O)O)[nH]c1-c1ccccc1	0.42	0.0
Cc1sc2ncn(CC(O)CO)c(=O)c2c1C (configuration not stated)	-0.008	0.0
C=C1N(c2cccc(C(F)(F)F)c2)C(=O)OC1(C)C	0.2	1.9
Cc1cc(C)c(NC(=O)c2nccnc2CO)c(C)c1	-0.73	-0.5
CCC(=O)N1CCc2cc(Br)cc(S(=O)(=O)N3CCC(C(=O)NCCC(C)C)CC3)c21	1	-0.2
CS(=O)(=O)c1nc(-c2ccc(Br)cc2)n[nH]1	-0.44	2.1
Cc1cccc(OC(=O)Cn2c(C(F)(F)F)nc3ccccc32)c1	-0.34	/
O=C1CC(Cc2ccc(Cl)cc2)C(=O)N1c1ccccn1 (configuration not stated)	/	3.4
CNC(=O)c1ccc(N2CCCC2=O)cc1	/	0.8
N#Cc1c(NC(=O)c2cccs2)sc2c1CCCCC2	0.23	2.0
COc1cccc(C2c3c(C)nn(C)c3NC(=O)C2NC(=O)c2ccccc2)c1 (configuration not stated)	/	0.7
Cc1cccc(C)c1NC(=S)N1CCCc2cccc(C)c21	/	-0.6
CCOC(=O)c1cccc(NC(=O)Cn2c(CC(=O)N3CCCC3)nc3ccccc32)c1	0.8	-2.2
O=C(Nc1ccc(Cl)cc1)NC1CCCCNC1=O (configuration not stated)	/	0.4
COc1ccc(C2NC(=O)c3ccccc3N2C)cc1 (configuration not stated)	/	1.4
Nc1cn(-c2ccccc2)nc1-c1ccccc1	/	2.2
CCn1nccc1NC(=O)COc1ccccc1OC	0.85	2.5

Sorted by length of the SMILES (largest number first): part of the list above.
SMILES	KSHV LANA nucl	Ab BasE inh
CCOC(=O)c1cccc(NC(=O)Cn2c(CC(=O)N3CCCC3)nc3ccccc32)c1	0.8	-2.2
Cc1cccc(OC(=O)Cn2c(C(F)(F)F)nc3ccccc32)c1	-0.34	/
O=C1CC(Cc2ccc(Cl)cc2)C(=O)N1c1ccccn1 (configuration not stated)	/	3.4
CCn1nccc1NC(=O)COc1ccccc1OC	0.85	2.5

(list continues)
SMILES	KSHV LANA nucl	Ab BasE inh
CCOC(=O)c1cnn2c1NC(c1ccc(C(C)C)cc1)CC2C(F)(F)F (configuration not stated)	-0.51	1.7
CC(c1nnc(SCC(=O)Nc2cccnc2Cl)n1Cc1ccccc1)N(C)C (configuration not stated)	/	0.7
Cc1ccc(C)n1C(CC(=O)O)c1ccc(C#N)cc1 (configuration not stated)	0.8	/
Cc1ccc(N(C)S(=O)(=O)c2cc(-c3cc(C)no3)ccc2C)cc1	/	0.1
Cc1nn(C)c(C)c1CNC(C)c1ccc(-n2ccnc2)cc1 (configuration not stated)	/	0.3
O=C(NN1C(=O)/C(=C\C=C\c2ccco2)SC1=S)c1ccccc1O	1.6	21
O=C1C=C(c2ccc(Br)cc2)OC(=O)C1C(=O)c1ccc(Br)cc1 (configuration not stated)	/	0.0
CC1CN(C(=O)N(C)C)CCN1C(=O)N(C)C (configuration not stated)	-0.3	1.4
Cc1cc(C(=O)COC(=O)Cc2coc3ccc4ccccc4c23)c(C)n1C1CC1	/	-1.1
S=C(Cc1cccnc1)N1CCOCC1	-0.63	4.3
COc1ccc(-n2c(=S)[nH]c3cc(C(=O)N4CCC(C(N)=O)CC4)ccc3c2=O)cc1	-1	-2.8
CCOc1ccc(N(CC)S(=O)(=O)N2CCCC(C(=O)N3CCc4ccccc43)C2)cc1 (configuration not stated)	0.61	-0.2

Single records, from the list above:
`Cc1ccc(C)n1C(CC(=O)O)c1ccc(C#N)cc1` (configuration not stated) is entered as KSHV LANA nucl = 0.8; Ab BasE inh = /
`CC(c1nnc(SCC(=O)Nc2cccnc2Cl)n1Cc1ccccc1)N(C)C` (configuration not stated) is entered as KSHV LANA nucl = /; Ab BasE inh = 0.7
`S=C(Cc1cccnc1)N1CCOCC1` is entered as KSHV LANA nucl = -0.63; Ab BasE inh = 4.3

(more compounds)
SMILES	KSHV LANA nucl	Ab BasE inh
CC(C)(C)NC(=O)CSc1nnc(-c2cccs2)o1	-1.4	1.1
COC(=O)c1c(O)ccc(-c2ccc(NC(C)=O)cc2)c1C(=O)OC	0.34	-0.7
CCCn1c(C)cc(C)c(C#N)c1=O	/	-4.3
O=C(NCc1ccccc1)NC1=NCCS1	0.19	-1.2
O=c1oc2ccccc2c(N2CCCC2)c1CN1CCCC1	0.48	-1.3
